CtBP-E1A inh – CtBP/E1A binding inhibition; AID 651724; activity change, % (test concentration not listed); AlphaScreen GST-E1A/His-CtBP binding, 1536-well; active compounds read low; control for the full effect not named in the record; hit rate 0.49% among 340,000; in the data active means activity change below about -65%; inconclusive means about -30% to -65%; inactive means above about -30%; further: on the % scale 0 is the no-effect control and ±100 the full control effect
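Steps: dispense buffer (Tris pH 8.0, NaCl 300 mM, TCEP 1 mM, BSA, Tween 20); add 5X protein mix (GST-E1A, His-CtBP, 125 nM each); pin 23 nL compound; 2 h at 37 °C, dark; add 5X beads (50 ug/mL); 1 h; read.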
Six1-Eya2 inh – Six1/Eya2 interaction inhibition | hit rate 0.56% among 360,000 | Q15475+O00167 | activity change, % (concentration not given with the values) | AlphaScreen GST-Six1/His-Eya2 binding, biochemical; active compounds read low; control for the full effect not named in the record | AID 651725; in the data active = activity change below about -65%; inconclusive = about -30% to -65%; inactive = above about -30%; further: on the % scale 0 is the no-effect control and ±100 the full control effect
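Homogeneous AlphaScreen proximity assay pairing GST-Six1 with His-tagged Eya2 (added as 5X mix: 250 nM and 500 nM) in 50 mM Tris pH 8.0, 300 mM NaCl, 1 mM TCEP. Glutathione donor and nickel acceptor beads; 1 h, 37 °C, dark.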
D2 potentiator – potentiates the human D2 dopamine receptor allosterically. hit rate 0.23% among 360,000. AID 624464. potentiation, % (test concentration not listed). P14416. DiscoveRx D2 beta-arrestin cells, luminescence, 90 min; 100% = 57 uM dopamine signal; active = potentiation of 50% or more; inconclusive = 30% to 50%; inactive = 30% or less;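 further: compound concentration not given in the record; tested on top of an EC20 dose of dopamine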
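D2 cells co-treated with compound plus 50 nM dopamine (EC20) for 90 min at 37 deg C to detect potentiation. Beta-arrestin recruitment was read as enzyme-fragment luminescence after 1 h at ambient temperature. Full response was set by 57 uM dopamine.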
TRPV1 PAM – human TRPV1 potentiation; Q8NER1; TRPV1-expressing cells, Fluo-8 calcium influx, capsaicin EC20 potentiation; host cell line not named in the record; control for the full effect not named in the record; potentiation, % at 8.33 µM; hit rate 0.02% among 320,000; active means potentiation above 80%; inconclusive means 30% to 80%; inactive means below 30%; further: 0% is about no effect
Target sequence (Q8NER1 whole entry, looked up): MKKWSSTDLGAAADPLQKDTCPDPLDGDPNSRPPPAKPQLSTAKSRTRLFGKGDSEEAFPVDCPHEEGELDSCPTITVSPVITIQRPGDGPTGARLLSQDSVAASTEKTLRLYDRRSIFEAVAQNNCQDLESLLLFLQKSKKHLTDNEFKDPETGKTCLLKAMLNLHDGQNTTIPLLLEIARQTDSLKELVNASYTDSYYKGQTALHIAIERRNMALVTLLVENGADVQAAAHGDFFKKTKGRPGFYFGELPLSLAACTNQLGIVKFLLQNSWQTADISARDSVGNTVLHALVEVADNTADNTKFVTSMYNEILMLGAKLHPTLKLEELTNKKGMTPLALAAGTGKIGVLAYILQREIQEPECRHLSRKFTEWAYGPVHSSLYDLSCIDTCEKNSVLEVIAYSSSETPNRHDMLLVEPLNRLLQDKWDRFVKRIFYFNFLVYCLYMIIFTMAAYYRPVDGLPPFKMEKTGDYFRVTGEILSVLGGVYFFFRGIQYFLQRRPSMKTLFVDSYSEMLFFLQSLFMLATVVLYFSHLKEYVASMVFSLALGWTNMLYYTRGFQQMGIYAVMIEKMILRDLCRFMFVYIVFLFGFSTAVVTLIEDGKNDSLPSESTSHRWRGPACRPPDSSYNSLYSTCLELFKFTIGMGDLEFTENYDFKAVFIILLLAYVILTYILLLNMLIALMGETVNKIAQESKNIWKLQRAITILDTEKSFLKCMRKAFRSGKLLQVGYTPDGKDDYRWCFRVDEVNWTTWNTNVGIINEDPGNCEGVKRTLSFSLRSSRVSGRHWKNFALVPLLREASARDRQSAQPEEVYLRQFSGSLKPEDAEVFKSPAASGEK
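Cells expressing TRPV1 were dye-loaded with Fluo-8 and read kinetically: 10 s baseline, 3 min after compound (agonist portion), then 2 min after EC20 capsaicin (allosteric enhancer portion). Calcium-bound dye fluorescence at 480/520 nm.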
Sfp inh – blocks B. subtilis Sfp PPTase activity; AID 1490; hit rate 3.5% among 310,000; Potency, µM, without a hit: max response, negative = inhibition, usual class: inhibitors; Biochemical Sfp PPTase activity, qHTS; active means well fitted inhibition curve with a large enough effect; inconclusive means small, poorly fitted or top-dose-only effect, or another doubt; inactive means no such curve, though single readings can be large or run the other way;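 further: the enzyme is Sfp with the accession as filed and its product quenches rhodamine fluorescence; potency means the concentration at half of the fitted maximal effect; 0% = enzyme reaction without inhibitor and -100% = no enzyme wells; top concentration of the series not given in the record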
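Step 1, compound plus 15 nM Sfp-PPTase, 15 min, room temperature. Step 2, add rhodamine-CoA (5 uM) and BHQ-2-YbbR (12.5 uM). Step 3, read 525/598 nm fluorescence at 0 and 30 min.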
D2 agonist – agonists of human D2 dopamine receptor (beta-arrestin) | P14416 | DiscoveRx PathHunter D2 beta-arrestin, luminescence, 90 min; 100% = 57 uM dopamine signal | activation, % (no concentration beside the values) | hit rate 0.084% among 360,000 | AID 624465; in the data active = activation above about 40%; inconclusive = about 15% to 40%; inactive = below about 15%; further: compound concentration not given in the record; the text of the record calls up to 30% inactive
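Agonist mode: compounds alone added to overnight-plated D2 PathHunter cells for 90 min at 37 C, with 57 uM final dopamine (EC100) defining full response. Beta-arrestin recruitment detected by chemiluminescent reagent, read after 1 h at ambient temperature.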
PINK1 expr mod – modulators of PINK1 expression; PINK1 immunofluorescence, high-content cytometry, 24 h; hit rate 0.2% among 410,000; Potency, µM (titrated, usually from 76.6 µM), for the others: top-dose activation (PINK1 increase), actives largely listed as activators; AID 624263; active = well fitted activation curve with a large enough effect; inconclusive = small, poorly fitted or top-dose-only effect; inactive = flat fitted curve, though single readings scatter; cell line not stated here;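 further: potency means the concentration at half of the fitted maximal effect; % of control where 0% means no effect; nearly all actives have a fitted effect of over 65% in size; a mitochondrial uncoupler was the plate control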
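Stable cell line treated 24 h with compounds at 5 concentrations (CCCP controls), then fixed and immunostained for PINK1 plus nuclear and cell stains; PINK1 immunofluorescence quantified by laser-scanning microplate cytometry.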
Active calls of the source: *; ? = inconclusive; / = no result given; [ ] = another dose, or the depositor's remark.

SMILES	CtBP-E1A inh	Six1-Eya2 inh	D2 potentiator	TRPV1 PAM	Sfp inh	D2 agonist	PINK1 expr mod
O=C(Nc1ccc2c(c1)OCO2)c1ccc2nc([C@@H]3O[C@H](CO)[C@H](O)[C@H](O)[C@H]3O)[nH]c2c1	1	-7	-9	/	/	-4.6	0.3%
N#CN/C(=N\S(=O)(=O)c1ccccc1)c1ccccc1	6	-1	1	5	21%	1.9	2.1%
Cc1c(NC(=O)C2CCCO2)cccc1[N+](=O)[O-] (stereo not given)	-18	2	-2	-19	-4%	2.1	2.1%
COc1cc(CNC2CCCCC2OC)cc(OC)c1OC (stereo not given)	1	-3	1	10	-23%	-2.5	1.5%
Cc1ccc(C(=O)N/C(N)=N/c2nc3ccccc3o2)cc1	-1	8	1	-2	0%	-1.8	11%
COc1ccc(CCNC(=O)c2cc(S(=O)(=O)N3CCC4(CC3)OCCO4)ccc2F)cc1OC	3	4	-4	-11	0%	3.2	0.3%
Cc1nc(NC(=O)C(C)(C)C)sc1C(=O)Cn1cc(CCc2ccccc2)nn1	2	6	-7	/	/	-4.4	0.6%
CCNC(=O)Nc1cc(S(=O)(=O)N2CCOCC2)ccc1N1CCCCC1	-1	4	11	/	/	1.0	0.0%
Cc1ccc(C)c(-c2ccc(=O)n(Cc3cccc(Br)c3)n2)c1	0	4	1	-13	-28%	-1.1	-1.4%
COc1ccc(-n2c(SCC(=O)NCC3CCCO3)nc3c([nH]c4ccccc43)c2=O)cc1 (stereo not given)	8	7	4	11	11%	8.1	17%
CCOC(=O)C1=NNC2(c3ccc(C)cc3)C(=O)N(c3ccccc3)C(=O)C12 (stereo not given)	-2	-1	-1	8	5%	-0.3	-1.0%
COc1ccc(-c2csc(NC(=O)CN3C(=O)NC4(CCCC4)C3=O)n2)c(OC)c1	-7	-2	5	-1	/	0.1	0.2%
Cc1ccccc1NC(=O)Cc1nc(COC(=O)CNC(=O)c2ccc(Cl)cc2Cl)cs1	1	4	-8	/	/	0.0	10%
CCOc1ccccc1N1CCN(CC(=O)N(C2CCCC2)C2CCS(=O)(=O)C2)CC1 (stereo not given)	-4	7	-5	12	/	-2.5	-0.3%
CC12CN3CC(C)(CN(C1)C3c1ccc(F)cc1)C2 (stereo not given)	-13	0	-9	5	23%	-8.1	1.3%
COc1ccc(OC(=O)OCc2ccccc2)cc1	5	24	0	/	/	-1.7	1.1%
COc1ccc(C(=O)CC(Sc2ccccc2N)c2ccc(OC)cc2)cc1 (stereo not given)	-18	-7	-28	/	/	-7.0	-0.8%
Cc1ccc(N2C(=O)[C@@H]3Cc4ccccc4CN3C2=O)cc1	2	-2	-4	-4	-1%	0.1	-2.2%[38.3 µM]
COc1ccc(-c2nc(N)n(C(C)=O)n2)cc1	4	10	-5	-3	12%	0.2	-2.2%
COc1ccc(NC(=O)N[C@@H](Cc2ccccc2)C(=O)NN)cc1	11	20	-18	-6	0%	-2.7	-0.2%
O=C(Cn1nnc(-c2ccc(Cl)cc2)n1)NCC1CCCCC1	8	2	17	-16	9%	-1.0	/
CCOC(=O)C(CC)n1nc(C)n2c(cc3sccc32)c1=O (stereo not given)	-4	6	-9	-4	14%	-2.1	1.1%
COc1ccc(-c2ccc(=O)n(Cc3ccc([N+](=O)[O-])cc3)n2)cc1	/	0	-12	-3	-12%	0.8	2.1%
CCOc1ccccc1N(CC(=O)N/N=C/c1cc(Br)ccc1OC)S(C)(=O)=O	14	-11	-11	-4	-9%	-0.4	4.1%
COC1CCN(C(=O)c2ccc(OC3CCN(CCc4ccccc4)CC3)cc2)CC1	7	3	-14	0	15%	-18	-1.5%

Continued; it opens with the 2 that closed the last part.
SMILES	CtBP-E1A inh	Six1-Eya2 inh	D2 potentiator	TRPV1 PAM	Sfp inh	D2 agonist	PINK1 expr mod
CCOc1ccccc1N(CC(=O)N/N=C/c1cc(Br)ccc1OC)S(C)(=O)=O	14	-11	-11	-4	-9%	-0.4	4.1%
COC1CCN(C(=O)c2ccc(OC3CCN(CCc4ccccc4)CC3)cc2)CC1	7	3	-14	0	15%	-18	-1.5%
COC(=O)CCC(=O)N1CCCC(C(=O)c2cc(F)ccc2F)C1 (stereo not given)	-1	4	2	3	6%	5.0	0.5%
O=P(O)(Cc1ccccc1)c1ccccc1	2	2	0	/	/	-3.1	0.6%
CC(=O)c1ccc(OCc2ccc(C(=O)c3ccccc3)cc2)cc1	7	-10	-2	?	-27%	0.6	1.7%
CCOC(=O)C1CCCN(Cc2c(F)cccc2Cl)C1 (stereo not given)	8	2	-14	11	-15%	-1.0	2.5%[38.3 µM]
Cc1ccc(S(=O)(=O)NCCC(=O)N2CCCCCCC2)cc1	12	32	-23	-34	/	-3.7	0.1%
COc1ccc(CO/N=C/c2c(C)[nH]c(=O)[nH]c2=O)cc1	6	1	2	3	16%	-1.1	0.5%
COc1cccc(CN(Cc2ccco2)C(c2ccc(F)cc2)c2nnnn2C(C)(C)C)c1 (stereo not given)	12	6	4	1	-4%	-1.9	9.5%
O=c1c2ccccc2nc2n1C(CSCc1cccc(C(F)(F)F)c1)CS2 (stereo not given)	3	8	3	9	10%	6.7	-5.9%
CC(C)CCN(C(=S)Nc1cccc(F)c1)C(C)c1cccs1 (stereo not given)	5	2	-4	7	-1%	0.0	-0.2%
CN(C)S(=O)(=O)N1CCN(CC(=O)Nc2ccc(F)cc2)CC1	/	1	7	4	14%	3.3	1.9%
Cc1ccc(-c2nnc(-c3ccccc3)c(N3CCOCC3)n2)cc1	-2	0	-10	-11	-5%	-3.9	3.4%[38.3 µM]
COC(=O)c1ccc2c(=O)n(CCN3CCOCC3)c(SCC(=O)Nc3ccccc3Cl)nc2c1	1	-7	-10	18	-7%	-0.7	10%
COc1ccc(-n2c(CN3CCC(C)CC3)nc3ccc([N+](=O)[O-])cc3c2=O)c(OC)c1	0	-6	-5	-1	25µM*	-1.3	2.7%
O=C(Nc1ccc(N2CCCCCC2)cc1)c1ccc[nH]1	/	?	-3	-17	/	4.1	-0.7%
CCOC(=O)C(NCCCO)c1ccccc1 (stereo not given)	-13	3	-8	-1	-1%	-1.5	?
Cc1cccc(OCC(=O)N/N=C/c2cn[nH]c2-c2ccc(Cl)c(Cl)c2)c1	2	4	-2	-33	10%	1.5	-2.7%
c1coc(C2=Nc3cccc4cccc(c34)N2)c1	0	-22	10	11	-26%	?	-2.8%
O=C(NNC(=O)NC1CCCCC1)NC1CCCCC1	/	10	-6	-6	-22%	-0.3	-0.4%
COc1nc(N(C)C)nc(N(C#N)CCOC(C)=O)n1	7	4	1	5	10%	5.5	1.9%
Cc1ccc(N(CC(N)=O)C2SC(=O)NC2=O)cc1 (stereo not given)	/	-8	-8	-4	7%	-7.4	-0.1%
CCOc1cc(N2CCOCC2)c(OCC)cc1NC(=O)c1cccc(S(=O)(=O)N2CCOCC2)c1	-5	-9	-5	/	/	-1.1	-5.3%
O=C(CCS(=O)(=O)c1ccccc1)Nc1nc2cc3c(cc2s1)OCCO3	15	8	-12	-14	-18%	1.4	-0.4%
COCCOC(=O)c1c(NC(=O)CN2CCc3ccccc32)sc(C(N)=O)c1C	-12	3	-6	/	?	-0.3	0.3%

Only D2 agonist, PINK1 expr mod and Six1-Eya2 inh, for some of the entries so far:
SMILES | D2 agonist | PINK1 expr mod | Six1-Eya2 inh
Cc1nc(NC(=O)C(C)(C)C)sc1C(=O)Cn1cc(CCc2ccccc2)nn1 | -4.4 | 0.6% | 6
COC(=O)CCC(=O)N1CCCC(C(=O)c2cc(F)ccc2F)C1 (stereo not given) | 5.0 | 0.5% | 4
CCOc1cc(N2CCOCC2)c(OCC)cc1NC(=O)c1cccc(S(=O)(=O)N2CCOCC2)c1 | -1.1 | -5.3% | -9
COc1ccc(NC(=O)N[C@@H](Cc2ccccc2)C(=O)NN)cc1 | -2.7 | -0.2% | 20
COc1ccc(-c2nc(N)n(C(C)=O)n2)cc1 | 0.2 | -2.2% | 10

In a second layout: seven of the compounds above.
| structure | CtBP-E1A inh | Six1-Eya2 inh | D2 potentiator | TRPV1 PAM | Sfp inh | D2 agonist | PINK1 expr mod |
| --- | --- | --- | --- | --- | --- | --- | --- |
| O=P(O)(Cc1ccccc1)c1ccccc1 | 2 | 2 | 0 | / | / | -3.1 | 0.6% |
| CC(=O)c1ccc(OCc2ccc(C(=O)c3ccccc3)cc2)cc1 | 7 | -10 | -2 | ? | -27% | 0.6 | 1.7% |
| CCOC(=O)C1CCCN(Cc2c(F)cccc2Cl)C1 (stereo not given) | 8 | 2 | -14 | 11 | -15% | -1.0 | 2.5%[38.3 µM] |
| Cc1ccc(S(=O)(=O)NCCC(=O)N2CCCCCCC2)cc1 | 12 | 32 | -23 | -34 | / | -3.7 | 0.1% |
| COc1ccc(CO/N=C/c2c(C)[nH]c(=O)[nH]c2=O)cc1 | 6 | 1 | 2 | 3 | 16% | -1.1 | 0.5% |
| COc1cccc(CN(Cc2ccco2)C(c2ccc(F)cc2)c2nnnn2C(C)(C)C)c1 (stereo not given) | 12 | 6 | 4 | 1 | -4% | -1.9 | 9.5% |
| O=c1c2ccccc2nc2n1C(CSCc1cccc(C(F)(F)F)c1)CS2 (stereo not given) | 3 | 8 | 3 | 9 | 10% | 6.7 | -5.9% |

High-throughput results: PubChem, National Center for Advancing Translational Sciences (NCATS)
